RN4220 kill = kills Staphylococcus aureus RN4220; S. aureus RN4220 growth, OD600, 16 h; inhibition, % (no concentration beside the values); AID 1259311; 330,000 tested, 0.33% active;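 active means z-score of -3 or lower and OD600 up to 0.18 on both plates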;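 further: plate controls were untreated cells for no effect and reference antibiotic for full effect; stock transfer was 100 nL into about 80 µL; one replicate is shown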
Mtb hypoxia rep = inhibitors of hypoxia-regulated fluorescent reporter in Mycobacterium tuberculosis. fluorescence inhibition, % (concentration not given with the values). AID 1159583. 300,000 tested, 0.1% active. M. tuberculosis hypoxia-regulated fluorescent reporter, fluorescence;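 active means 35 to 45% if threefold the growth effect, above 45% if 1.5-fold the growth effect; inactive means the rest, general growth blockers included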;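 further: wells of about 50 µL received 100 nL stock; 0% = vehicle wells and 100% = reference inhibitor wells; whole bacteria with a GFP reporter of the hypoxia response; strong numbers were not always called active; many hits fall short of the cut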
Sa ugtP lethal = compounds lethal to S. aureus RN4220 ugtP deletion mutant. growth inhibition, % (concentration not given with the values). 330,000 tested, 0.54% active. OD600 growth, 16 h; some inactives read as strong as hits. AID 1259309;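 active means z-score under -3 and OD600 up to 0.15 on both plates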;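 further: plate controls were untreated wells for no effect and antibiotic for full effect; wells of about 80 µL received 100 nL stock; the first replicate is given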
PrP 5UTR inh = inhibition of PrP 5' UTR reporter expression | cell-based PrP 5' UTR mRNA reporter, plate reader | inhibition, % (concentration not given with the values) | 340,000 tested, 0.35% active | AID 488862;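 active means every replicate at 50% or more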;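 further: 0 = median of the neutral control wells; tested in H4 reporter cells; numbers are from one replicate; inactives centre near -14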
BJeLR lethal = BJeLR cell viability loss. BJeLR (HRASV12) viability, CellTiter-Glo ATP luminescence, 48 h; reference of the scale not given here. inhibition, % (concentration not given with the values). 300,000 tested, 0.17% active. AID 1554;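 active means replicate mean above 50%; inconclusive means above 50% but judged a plate artefact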;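 further: 50 nL library stock added to about 25 µL; numbers are from one replicate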
Bead autofluor = compound fluorescence in toxin protease inhibitor counterscreen; fluorescence intensity (test concentration not listed); compound autofluorescence counterscreen, microsphere flow cytometry; active compounds read high; AID 624483; 360,000 tested, 3.1% active;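 active means at least 3 SD above the mean of all compounds, about 16000 in these data; inconclusive means too few beads counted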;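 further: 100 nL of 1 mM stock went into each well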
Mtb hypoxia rep growth = also measured in Mtb hypoxia rep; calls as there; growth inhibition, %; measured here: M. tuberculosis growth (absorbance);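 0% = vehicle and 100% = reference antibiotic; read after six days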
Starred values were filed as active, the others as inactive; ? = inconclusive; . = not tested or not shown.

SMILES	RN4220 kill	Mtb hypoxia rep	Mtb hypoxia rep growth	Sa ugtP lethal	PrP 5UTR inh	BJeLR lethal	Bead autofluor
O=C(O)C(Cc1c[nH]c2ccccc12)NS(=O)(=O)c1cccc(Cl)c1Cl (stereo not drawn)	3.2	8	-5	6	-19	-10	3981
N#CC(C#N)=C1c2cc(S(=O)(=O)NCCO)ccc2-c2ccc(S(=O)(=O)NCCO)cc21	-1.1	10	-2	4	-11	15	4703
C=CCn1cc(/C=C2\SC(N3CCOCC3)=NC2=O)c2ccccc21	2.7	4	4	9	.	-2	.
NC(=O)C[n+]1cccc2ccccc21	2.4	7	4	-1	-47	0	8934
O=C(NNC(=O)c1ccco1)c1csc(N2CCOCC2)n1	0.1	-4	-8	0	-13	-18	.
CNC(=O)C1CCN(S(=O)(=O)c2c(C)noc2/C=C/c2ccccc2F)CC1	-8.1	9	14	-4	-34	-12	6628
CCCc1cc(-n2ccnc2C)n2c(nc3ccccc32)c1C#N	4.8	11	0	6	0	-2	5799
O=C(Nc1ccc2c(c1)OCO2)C1CC(c2ccc(Cl)cc2)=NO1 (stereo not drawn)	1.6	2	8	-7	-7	21	2650
Cc1onc(-c2ccccc2Cl)c1C(=O)Nc1ccc(Br)cc1	6.6	6	-7	11	-12	-11	4063
CCCNC(=O)c1ccccc1NC(=O)c1cccc(-n2cnnn2)c1	3.7	12	10	-4	.	.	.
O=C(NC1CC2CCCC(C1)N2CC(=O)N1CCCc2ccccc21)C1CCCCC1 (stereo not drawn)	4.6	21	13	0	-21	1	4572
O=C(NC12CC3CC(CC(C3)C1)C2)c1ccc(-c2ccc(Cl)cc2)o1	-5.5	4	-4	-38	-91	3	10346
Cc1[nH]c2ccccc2c1-c1csc(NC(=O)CN2CCOCC2)n1	3.6	3	12	-6	-32	6	3496
O=C(NCC(c1cccnc1)N1CCN(c2ccccc2F)CC1)OCc1ccccc1 (stereo not drawn)	-17	-5	5	-3	-6	-8	3821
CCOC(=O)c1cccc(-n2cccc2C=C2NC(=O)N(CC(=O)O)C2=O)c1	3.5	9	3	5	.	.	.
N=C1S/C(=C\c2ccccc2F)C(=O)N1c1ccc(F)cc1	.	.	.	.	-7	0	2606
CN(Cc1cccs1)C(=O)Cn1cnc2cc([N+](=O)[O-])ccc2c1=O	1.3	10	16	2	-42	0	4405
O=C(N/N=C/c1ccc(Cl)cc1)c1nc2ccc([N+](=O)[O-])cc2c(=O)[nH]1	.	.	.	.	-59	3	2360
Cc1ccc(-n2[nH]c(C)c(/C=N/c3ccccn3)c2=O)cc1	.	.	.	.	-28	18	7769
Cc1ccccc1Cc1n[nH]c(=S)n1N	4.9	1	9	7	-15	14	10025
O=C(O)c1ccc(COc2ccc3ccccc3c2)o1	7.4	5	-1	0	-68	-4	4737
O=C(CSc1nc2ccccc2c(=O)n1NC(=O)Cc1ccccc1)NCCc1ccccc1	16	10	3	-4	-26	-1	21231*
COC(=O)c1cc(NC(=O)C2(S(=O)(=O)c3ccc(Cl)cc3)CC2)cc(C(=O)OC)c1	9.3	2	0	-7	-41	-8	9547
COc1ccc(N/C=C/C(=O)C(F)(F)F)cc1	3.6	5	8	9	-8	15	1996
COc1ccc(NC(=O)c2nn(C)c3c2CS(=O)(=O)c2ccccc2-3)cc1	1.2	0	-1	10	-17	5	5352
COc1ccccc1Oc1ccc(S(=O)(=O)N2CCCCC2)cc1NC(=O)CCNC(C)=O	1.2	7	5	-1	1	-7	6109
Cc1cccc(-n2c(-c3cccc([N+](=O)[O-])c3)nc3nc4ccccc4nc32)c1	31	-2	-5	-16	.	-3	.
Cc1ccc(S(=O)(=O)N2CCN(C(=O)CN3CCc4ccccc4C3)CC2)cc1	5.3	-3	1	3	-20	-8	21614*
COc1cc(/C=C/C(=O)N(Cc2ccccc2)c2ccccn2)cc(OC)c1OC	4.0	11	0	5	-16	-13	1980
COc1ccc(CC(=O)N2CCC(CCC(=O)Nc3ccccc3)CC2)cc1	-3.4	-4	1	0	-18	-1	5920
Cc1ccc(S(=O)(=O)c2nc(C)oc2N2CCOCC2)cc1	5.6	8	0	14	-22	-9	4543
O=C(Cc1cccs1)Nc1nnc(SCc2ccc(C(F)(F)F)cc2)s1	1.7	2	3	-1	-18	6	2089
CN(C)c1ccc(NC(=O)CN2CCC(C(=O)c3ccc(F)cc3)CC2)cc1	2.7	6	4	4	-13	-1	11325
CC(=NNC(=O)CNC(=O)c1ccc2c(c1)OCO2)c1ccc2c(c1)CCCC2	-0.9	-7	-7	-5	.	.	.
CC(=O)C1=C(c2ccccc2)NC(=O)NC1c1ccccc1 (stereo not drawn)	8.1	-11	-3	0	-42	-2	3870
O=C(COC(=O)C1(c2ccc(Cl)cc2)CCCC1)NCc1ccco1	3.4	10	9	16	-25	1	4546
Fc1ccc2c(c1)/C(=N/Nc1ccccn1)CCS2	.	.	.	.	-12	-1	4410
CN(C)CCNC(=O)C(=O)NCC(c1ccc2c(c1)OCO2)N1CCN(c2ccc(F)cc2)CC1 (stereo not drawn)	-0.9	0	9	0	-9	-5	5395
Cc1cc(NC(=O)c2cc(F)c(F)cc2Cl)no1	4.0	-3	3	4	-24	8	2063
Cc1cccc2sc(N(CCCN(C)C)C(=O)COc3ccc(Cl)cc3)nc12	-4.9	12	2	1	-15	-2	.

By substructure, the compounds so far containing an aryl thioether with sulfur outside any ring.
SMILES	RN4220 kill	Mtb hypoxia rep	Mtb hypoxia rep growth	Sa ugtP lethal	PrP 5UTR inh	BJeLR lethal	Bead autofluor
O=C(CSc1nc2ccccc2c(=O)n1NC(=O)Cc1ccccc1)NCCc1ccccc1	16	10	3	-4	-26	-1	21231*
O=C(Cc1cccs1)Nc1nnc(SCc2ccc(C(F)(F)F)cc2)s1	1.7	2	3	-1	-18	6	2089

Structural class: the compounds so far with two or more sulfur atoms.
SMILES	RN4220 kill	Mtb hypoxia rep	Mtb hypoxia rep growth	Sa ugtP lethal	PrP 5UTR inh	BJeLR lethal	Bead autofluor
N#CC(C#N)=C1c2cc(S(=O)(=O)NCCO)ccc2-c2ccc(S(=O)(=O)NCCO)cc21	-1.1	10	-2	4	-11	15	4703
O=C(Cc1cccs1)Nc1nnc(SCc2ccc(C(F)(F)F)cc2)s1	1.7	2	3	-1	-18	6	2089

Next records follow:
SMILES	RN4220 kill	Mtb hypoxia rep	Mtb hypoxia rep growth	Sa ugtP lethal	PrP 5UTR inh	BJeLR lethal	Bead autofluor
CCc1cccc(CC)c1NC(=O)c1cccc(NC(=O)c2ccccc2)c1	7.6	9	15	-3	-20	-2	8757
C=CCNC(=S)NNC(=O)c1csc(C)c1C	0.7	5	10	2	-1	-4	2034
CC1CC(C)(C)CC2(C1)NC(=O)N(CC(=O)N1CCN(Cc3ccc(C#N)cc3)CC1)C2=O (stereo not drawn)	-1.9	4	7	0	-4	.	4254
CCOC(=O)CCC(NC(=O)CCCCC(=O)NC(CCC(=O)OCC)C(=O)OCC)C(=O)OCC (stereo not drawn)	0.9	2	3	6	-12	13	2486
O=Cc1cccc(OC(=O)/C=C/c2ccco2)c1	4.6	7	-6	3	-44	1	3843
O=C(COC(=O)/C=C/c1cnc2ccccc2n1)NCC(F)(F)F	-0.4	.	.	-3	-15	3	3992
Cc1cc(C)nc(SCc2nnc(SCC(N)=O)n2Cc2ccco2)n1	2.7	6	3	10	-11	2	4223
CCOC(=O)COc1cc2oc(=O)cc(C)c2cc1[N+](=O)[O-]	3.1	-1	-9	0	-23	-8	5370
O=C(COC(=O)c1cc(-c2cccc3ccccc23)nc2ccccc12)NC1CCS(=O)(=O)C1 (stereo not drawn)	-0.4	2	-5	-3	-13	-3	2589
Cc1nn(CCCC(=O)NCCc2ccc(Cl)cc2)c(=O)c2nn(-c3ccccc3)c(C)c12	0.1	16	7	0	-5	-7	5615
CC(=O)Nc1ccc(S(=O)(=O)N(C)CC(=O)N2CCN(C(=O)c3ccco3)CC2)cc1	3.2	3	3	2	-4	.	4261
COc1cc(C(=O)OCC(=O)c2c[nH]c3ccccc23)ccc1OCC(=O)N1CCOCC1	5.6	9	6	4	-16	10	6676
O=c1c2cccc(Cl)c2nc2n1Cc1ccccc1-2	0.4	1	-5	0	-56	-1	.
Cc1ccc(C(=O)NCCCN2CCOCC2)c(C)c1	3.9	13	5	4	-15	-8	4013
OC(CNCCc1ccc(Cl)cc1Cl)COc1ccccc1 (stereo not drawn)	9.1	7	5	-13	-14	11	3948
CCn1cc(C(=O)O)c(=O)c2cnc(N3CCN(C(=S)Nc4ccccc4Cl)CC3)nc21	18	2	7	-7	-3	22	4745
CCN(Cc1ccccc1)c1ccc(/C=N/NS(=O)(=O)c2ccc(C)c([N+](=O)[O-])c2)cc1	.	.	.	.	-8	-3	3299
Cc1noc(C)c1COc1ccc(C(=O)NNC(=O)c2ccccc2F)cc1	1.8	7	-2	10	-44	.	4066
O=C(O)/C=C\c1ccccc1Oc1ccc(F)cc1	4.1	12	8	-3	-7	-8	3612
Cc1ccc(S(=O)(=O)N(C)C)cc1NC(=O)CN1CCCC1	4.7	-3	-6	-1	-30	-2	3927
CN(C)NC(=O)c1cccc(Cl)c1	3.2	16	-5	6	.	-2	6262
C[C@@H]1CN([C@@H](C)CO)C(=O)Cc2cc(NS(=O)(=O)c3cn(C)cn3)ccc2O[C@@H]1CN(C)C(=O)Nc1ccccc1	-10.0	3	11	-4	-5	.	3465
C1=CC2=NC34CCCCC3CC3=C(CCCC3)N4C2=CC1=NC1CCCCC1 (stereo not drawn)	48	.	.	14	-13	10	3294
O=C(c1ccco1)N1CCN(S(=O)(=O)c2ccc3c(c2)CCN3C(=O)C2CC2)CC1	0.8	.	.	4	-10	4	3822
COC(=O)c1cc(N=C(N)N=C(N)N)cc(C(=O)OC)c1	2.8	8	5	5	-26	8	6686
Fc1ccccc1CNCCc1c[nH]c2ccccc12	0.1	-1	9	5	-26	-9	3521
O=C(Nc1ccncc1)c1ccc(Cl)c(Cl)c1	-0.7	4	-5	1	-8	13	.
O=C(CSc1nnc(Cc2cc(=O)[nH]c(=O)[nH]2)n1-c1ccccc1)N1CCCC1	2.0	11	5	4	-16	-10	6924
O=C(Nc1ccccc1C(=O)OC1CCOC1=O)c1ccco1 (stereo not drawn)	-3.1	4	10	6	-23	3	9107
O=C(O)c1cccc(C(=O)c2cccc3ccccc23)c1	6.7	10	6	2	-29	6	6250
Cc1csc(N2CCN(c3cc4nc(-c5ccncc5)[nH]c4cc3Cl)CC2)n1	11	1	6	-30	-28	-4	3720
COc1ccc(C2CC(c3ccc(OC)cc3)n3nc(NC(=O)c4ccco4)nc3N2)cc1 (stereo not drawn)	0.6	.	.	-2	-23	0	2805
Cn1c(=O)n(CC#N)c2ccccc21	6.8	16	13	7	-25	-5	4160
CC(=O)c1cccc(OCC(=O)Nc2cc(S(=O)(=O)N3CCOCC3)ccc2N2CCCC2)c1	0.7	4	6	6	-22	13	?
CCc1ccc(NC(=O)CCC(=O)c2ccc(C)cc2)cc1	-0.9	-3	9	7	.	1	3605
CC1=C(C)CC(C(=O)Nc2nc(-c3ccc(C)cc3C)c(C)s2)C(C(=O)O)C1 (stereo not drawn)	12	-8	-2	-18	-18	0	2531

A section from the list above, as a working copy:
SMILES	RN4220 kill	Mtb hypoxia rep	Mtb hypoxia rep growth	Sa ugtP lethal	PrP 5UTR inh	BJeLR lethal	Bead autofluor
CC(=O)c1cccc(OCC(=O)Nc2cc(S(=O)(=O)N3CCOCC3)ccc2N2CCCC2)c1	0.7	4	6	6	-22	13	?
CCc1ccc(NC(=O)CCC(=O)c2ccc(C)cc2)cc1	-0.9	-3	9	7	.	1	3605
CC1=C(C)CC(C(=O)Nc2nc(-c3ccc(C)cc3C)c(C)s2)C(C(=O)O)C1 (stereo not drawn)	12	-8	-2	-18	-18	0	2531

Record cards, as listed above. Order of values: RN4220 kill, Mtb hypoxia rep, Mtb hypoxia rep growth, Sa ugtP lethal, PrP 5UTR inh, BJeLR lethal, Bead autofluor
CN(C)NC(=O)c1cccc(Cl)c1 across the screens: 3.2, 16, -5, 6, ., -2, 6262
Cn1c(=O)n(CC#N)c2ccccc21 across the screens: 6.8, 16, 13, 7, -25, -5, 4160

Screening results (PubChem BioAssay)
